Screens as filed in PubChem BioAssay.
NPYLR7 ag = mosquito NPYLR7 agonism | HEK293T NPYLR7/Galpha15, GCaMP6s calcium fluorescence | activation, % at 10 µM | 270,000 tested, 0.15% active; in the data active = activation above about 40%;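 also: 0% = vehicle and 100% = reference agonist at the receptor; some compounds past the cut are filed as inactive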
NPYLR7 ag max-min = also measured in NPYLR7 ag; calls as there; activation, %; measured here: Max-Min RFU normalised activation; some inactives read as strong as hits;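 span of the calcium signal over five minutes; 0% = vehicle and 100% = native peptide agonist; compound fluorescence can raise it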
Starred values were filed as active, the others as inactive; & = joins results of further samples.

Screens in order – NPYLR7 ag | NPYLR7 ag max-min
Cn1ccnc1C(O)C1CCN(Cc2cc3n(n2)CCCNC3)CC1 (stereo not given)
    7 | 4
CC(C)n1nc(C(=O)N2CCc3ccn(C)c3C2)c2ccccc2c1=O
    7 | 4
COCCn1cc(Nc2cnc(C(=O)OC)cn2)cn1
    6 | 3
Cn1cccc(C(=O)NCc2cc(-c3ccc4c(c3)OCO4)on2)c1=O
    -1 | -3
O=C(Nc1nncs1)C1CCN(C(=O)COc2ccc3c(c2)CCC3)CC1
    11 | 7
Fc1cnc(N2CCN(c3ccccc3)CC2)nc1N1CCN(c2ccccc2)CC1
    5&-1 | 3&-4
CCOc1ccc(C2=C(C(C)=O)Sc3nnc(Cc4ccc(OC)cc4)n3N2C(C)=O)cc1
    3 | 1
O=C(c1ccccc1-n1cnnn1)N1CCCC(N2CCCCC2)C1 (stereo not given)
    6 | 2
O=C(CCc1nc(-c2ccc(F)cc2)no1)NC1=NCCS1
    -2 | -2
CCOC(=O)c1c(N)sc(C(=O)Nc2cc(C(F)(F)F)ccc2Cl)c1C
    -9 | -8
CCc1ncc(C(O)(c2ccccc2)c2ccc(C)cc2)n1C (stereo not given)
    10 | 6
O=C1CCN(C[C@@H](O)COCc2ccccc2)c2ccsc2CN1Cc1ccccc1
    22 | 32
O=C(c1ccc2ccccc2n1)N(CCN1CCCCC1)CC1CCCN(C2CCCC2)C1 (stereo not given)
    3&2 | -1&1
CN1CC2(CCCN(C(=O)c3ccc(Cn4cnnn4)cc3)C2)OC1=O (stereo not given)
    7 | 3
COCCNC(=O)C1(C)CCCN(CCS(=O)(=O)c2ccc(C)cc2)C1 (stereo not given)
    2 | -2

Carrying on:
Screens in order – NPYLR7 ag | NPYLR7 ag max-min
O=C(Nc1ccc(F)cc1F)c1noc2c1CCC2
    2 | 2
COc1ccc(OC)c(/C=C2\SC(=Nc3ccccc3)NC2=O)c1
    5 | -2
Cc1nn(C)c(Cl)c1CN1CCN2C(=O)CNC(=O)C2C1 (stereo not given)
    -1 | -1
Cc1cc(C)c2oc(=O)n(C3CCN(C(=O)c4cc(F)ccc4F)CC3)c2c1
    3 | -3
CC1(C(=O)NCc2cccc3ccccc23)CCN1Cc1csc2ccccc12 (stereo not given)
    -1 | -7
CCCSc1ncccc1C(=O)N1CCN(c2c(Cc3ccccc3)c(C)nc3ncnn23)CC1
    28 | 23
Cc1cc(S(=O)(=O)N2CCCC2C(=O)NCC(F)(F)F)c(C)s1 (stereo not given)
    10 | 7
CC(NC(=O)NCC(=O)N(C)CCc1ccccn1)c1ccncc1 (stereo not given)
    -2 | 6
Cc1cc(C)n(-c2cncc(NC3CCN(CC(F)F)CC3)n2)n1
    -2 | -8
Nc1ncnc(Nc2cccc([N+](=O)[O-])c2)c1[N+](=O)[O-]
    -2 | -3
CCOC(=O)C1=C(Cn2ncc(Cl)c(Cl)c2=O)NC(=O)NC1C (stereo not given)
    1 | 1
O=C(c1cnc(Nc2ccccc2)nc1)N1CCOC(c2ccc(F)cc2)C1 (stereo not given)
    -1 | -6
O=C(Cn1sc2ccccc2c1=O)NC12CC3CC(CC(C3)C1)C2
    1 | 30
COc1ccc(C(=O)NCCCNC(=O)[C@H]2CCCN2C(=O)CCc2ccccc2)cc1
    17 | 26
CC(=O)c1cc(CN2CCN(c3nc(-c4ccccc4)nc4c3CCC4)CC2)cs1
    -4 | -4

Overlap with the part before: two entries, followed by the next part.
Screens in order – NPYLR7 ag | NPYLR7 ag max-min
COc1ccc(C(=O)NCCCNC(=O)[C@H]2CCCN2C(=O)CCc2ccccc2)cc1
    17 | 26
CC(=O)c1cc(CN2CCN(c3nc(-c4ccccc4)nc4c3CCC4)CC2)cs1
    -4 | -4
CCOc1ccc(NC(=O)Cc2ccc(C)s2)cc1
    0 | 0
COc1cccc(Cc2nsc(N(C)CC(=O)O)n2)c1
    36 | 37
N=C1C(c2nc3ccccc3c(=O)[nH]2)C(=O)CN1c1ccc([N+](=O)[O-])cc1 (stereo not given)
    5 | 5
S=C(NCc1ccco1)NC1CCSc2ccccc21 (stereo not given)
    -2 | 5
COc1ccc(-c2noc(CSc3ncccn3)n2)cc1OC
    1 | 1
CCn1nc(C)c(NC(=O)CN2CCN(C(C)=O)CC2)c1C
    12 | 6
CCOc1ccc(C(C2Sc3nc(C)nn3C2=O)N2CC(C)OC(C)C2)cc1OC (stereo not given)
    -1 | -3
O=C(Nc1ccc2[nH]c(=O)[nH]c2c1)c1ccc(COCC(F)(F)F)cc1
    3 | 2
COc1ccc(CNC(=O)C(=O)Nc2ccc(C)c(F)c2)cc1
    14 | 8
CC1C2=C(CCCC2=O)OC(=N)C1C#N (stereo not given)
    13 | 14
Nc1nnc(SCC(=O)N2CCCc3ccccc32)s1
    0 | 0
C=C(C)CN1CCN(c2cc(C)nc3nc(C(F)(F)F)nn23)CC1
    3 | 1
CCNC(=O)NC(=O)CSc1nncn1Cc1ccco1
    -5 | -6
CN1CCN(Cc2ccc(C3CCCCC3)s2)CC1CCO (stereo not given)
    3 | -1
COCCCN(Cc1ccc(C)o1)Cc1ccc(C(O)(c2cccc(F)c2)c2cccc(F)c2)o1
    3 | 9

(continued)
Screens in order – NPYLR7 ag | NPYLR7 ag max-min
Cc1cccc(C(=O)Nc2sc3c(c2C(=O)N2CCN(C)CC2)CCCC3)c1
    9 | 4
Cn1c(N)c(C(=O)COC(=O)C23CC4CC(CC(Br)(C4)C2)C3)c(=O)n(C)c1=O
    2 | 0
COC(=O)Nc1ccc2c(c1)C(=O)Nc1cc(C)ccc1O2
    -1 | -3
Cc1cc(C)n2ncc(C(=O)NC3CC(=O)N(C4CCCCCC4)C3)c2n1 (stereo not given)
    5 | 1
Cc1cccnc1NC(=O)CC1CSc2nc(C(C)C)cc(=O)n21 (stereo not given)
    -3 | -1
CCOC(=O)COc1nsnc1N1CCOCC1
    5 | 2
Cc1noc(C)c1C(=O)Nc1ncc(Cc2ccccc2)s1
    2 | 3
CCc1nc(-c2c(-c3ccccc3)ncn2Cc2ccc(CO)cc2)c(C)[nH]1
    -7 | -7
CN1CCCC(CNC(=O)COCc2nc3ccc(F)cc3[nH]2)C1 (stereo not given)
    9 | 5
CC1(C(=O)NS(=O)(=O)c2ccccc2)CCN1C(=O)Cc1cccs1 (stereo not given)
    5 | 7
N#Cc1ccc(CNc2ccc(F)cc2Cl)cc1
    3 | 1
CCNC(=O)c1cn(CCc2ccccc2)cc(C(=O)N2CCC(c3ccccc3)CC2)c1=O
    17 | 6
NCCCCCCCCCCN
    2 | -22
COCc1cc(CNC(=O)c2cn3cc(Cl)ccc3n2)[nH]n1
    5 | 1
COc1ccc(-n2cccn2)c(C2CC(=O)NCc3nc4ccccn4c32)c1 (stereo not given)
    22 | 7

Reformatted as labelled records: part of the list above
> Cn1c(N)c(C(=O)COC(=O)C23CC4CC(CC(Br)(C4)C2)C3)c(=O)n(C)c1=O
  NPYLR7 ag: 2	NPYLR7 ag max-min: 0
> CCNC(=O)c1cn(CCc2ccccc2)cc(C(=O)N2CCC(c3ccccc3)CC2)c1=O
  NPYLR7 ag: 17	NPYLR7 ag max-min: 6
> NCCCCCCCCCCN
  NPYLR7 ag: 2	NPYLR7 ag max-min: -22
> Cc1cccc(C(=O)Nc2sc3c(c2C(=O)N2CCN(C)CC2)CCCC3)c1
  NPYLR7 ag: 9	NPYLR7 ag max-min: 4

Additional compounds follow.
Screens in order – NPYLR7 ag | NPYLR7 ag max-min
COCC(=O)Nc1ccc(N2CCN(C(=O)c3ccccc3OC)CC2)nc1
    -4 | 2
O=C(CSc1nccn2nc(-c3ccc(Cl)cc3)cc12)NC1CCCCC1
    2 | -5
CC(=NNC(=S)NC(C)C)c1ccc2c(c1)OCO2
    1 | 1
COc1ccc(-n2c(=O)[nH]c3c(C(N)=O)nc(-c4ccc(O)cc4)nc32)cc1OC
    6 | 1
N#Cc1ccc(-c2ccc3c(n2)C(=O)N(CC(=O)NCC2CCCCC2)C3)cc1
    -14 | -15
FC(F)(F)c1ccnc(SCc2csc(Cc3ccc(Cl)c(Cl)c3)n2)n1
    5 | 1
Nc1ncnc2sc3c(c12)CCN(C(=O)C=Cc1ccccc1F)C3
    1 | 1
CCNC(=S)N(Cc1ccco1)Cc1c(-c2ccccc2)noc1N1CCC(C)CC1
    5 | 8
COc1cc(CN2CCN(Cc3ccc(F)c(F)c3)CC2CCO)cc(OC)c1 (stereo not given)
    9 | 0
CN(C)c1ccc(C(=O)N2CCCc3cc(OC(F)(F)F)ccc32)cn1
    9 | 5
CN(CCCO)C(=O)c1cccc(CC2CCNCC2)c1
    7 | 4
NC(=O)NCC(=O)N1CCCC1c1cccs1 (stereo not given)
    10 | 15
CCC(C)N(Cc1cccnc1)C(=O)c1cccc(F)c1OC (stereo not given)
    18 | 12
CNC(=O)NC(=O)CCSCc1ccc(OC)c(F)c1
    1 | 0
Cc1cc(C)nc(Nc2n[nH]c(COc3cccc4ccccc34)n2)n1
    2 | 5

Remaining list, next part
Screens in order – NPYLR7 ag | NPYLR7 ag max-min
CCn1c(C)cc(O)c(C(c2cccc(Cl)c2)N2CCN(C)CC2)c1=O (stereo not given)
    12 | 4
CCc1nc2ccc(C(=O)NCc3ccc(OC)cc3)cn2c1N(CC)Cc1cccc(Br)c1
    17 | 14
Fc1ccccc1-c1cnnc(NCCc2cccc(Cl)c2)n1
    19 | 7
Cc1csc2nc(O)c(C(=O)NC(C)CCc3ccccc3)c(=O)n12 (stereo not given)
    -2 | 37
CCc1nc2n(n1)C(=O)C(C(c1ccc(Cl)c(Cl)c1)N1CCN(CC)CC1)S2 (stereo not given)
    -4 | -9
CCN(C(=O)COc1ccc(F)cc1F)C(C)CS(=O)(=O)CC (stereo not given)
    8 | -19
CC(Nc1ccc2oc(=O)[nH]c2c1)C(=O)Nc1ccc(F)cc1Cl (stereo not given)
    2 | 0
COCCn1ccc2c(cnc3nc(-c4cccnc4)nn32)c1=O
    8 | 14
Cc1cc(C(=O)NCCN2CC(C)CC(C)C2)nn1C(C)(C)C (stereo not given)
    2&2 | -1&4
CCS(=O)(=O)Nc1cc2c3c(c1)CC(=O)N3CCC2
    -1 | -4
CC(CNCc1ccc(C(=O)O)cc1)c1ccccc1 (stereo not given)
    -17 | -20
OCCCC1CCCN1C1C=CCCC1 (stereo not given)
    0 | -1
CS(=O)(=O)NC1CCN(c2nc3ccccc3nc2NS(=O)(=O)c2cccc(Cl)c2)CC1
    3 | -1
N#Cc1cccc(S(=O)(=O)N2Cc3ccccc3CC2C(N)=O)c1 (stereo not given)
    2 | 2
Cc1nc2ccc(Cl)cn2c(=O)c1NC(=O)CC(C)(C)C
    2 | -1

Remaining list, next part:
Screens in order – NPYLR7 ag | NPYLR7 ag max-min
CC(SCc1nnnn1-c1ccccc1)C(=O)NCC(F)(F)F (stereo not given)
    4 | 4
COc1ccc(-n2c(CCC(=O)NCC3CCCO3)cc3c2-c2ccccc2CC3)cc1 (stereo not given)
    2 | -1
CN(Cc1nc2ccccc2c(=O)[nH]1)C(=O)c1cc(C(F)(F)F)cc(C(F)(F)F)c1
    -4 | -3
CSc1ccccc1NC(=O)Cn1nc([N+](=O)[O-])c(Br)c1C
    3 | -2
COc1cccc(OC)c1C(=O)Nc1ccc(-c2onc3c2CCc2ccccc2-3)cc1
    1 | -4
Cc1ccc(C)c(S(=O)(=O)N2CCN(c3cc4c(cc3[N+](=O)[O-])OCCO4)CC2)c1
    -4 | -3
CC1CN(C(=O)Cn2cc(SCC(=O)NCc3ccc(F)cc3)c3ccccc32)CC(C)O1 (stereo not given)
    -7 | -11
CN1CCN(C(c2cccc(Br)c2)C2Sc3nc(-c4ccco4)nn3C2=O)CC1 (stereo not given)
    -10 | -10
Cc1cccc(NC(=O)NCCN2CCC(N(C)C)CC2)c1Cl
    1 | 451
CCCCC(=O)N1CC2(CCCC2)NC(=O)C1CC(=O)O (stereo not given)
    -7 | -6
O=C1Nc2ccccc2NC12CCN(c1ncnc3[nH]ccc13)CC2
    1 | -1
Cc1ccc(NC(=O)NC2CCN(c3ccccc3C(=O)N3CCc4ccccc4C3)CC2)cc1
    14 | 14
O=C(c1cnc(Nc2ccccc2)nc1)N1CCCC(CCc2ccc(F)cc2)C1 (stereo not given)
    3 | -2
N#CC(C(=O)c1cc(=O)c2ccccc2o1)c1ccc2ccccc2n1 (stereo not given)
    0 | -4
COC(=O)c1cc2n(n1)CCCN(C(=O)C1(C)CCCCO1)C2 (stereo not given)
    -2 | -6

The list goes on.
Screens in order – NPYLR7 ag | NPYLR7 ag max-min
CCOC(=O)C1(C(=O)OCC)Cc2ccsc2-c2sccc2C1
    -3 | -4
O=C(NCc1ccc(OC(F)(F)F)cc1)c1ccc(-n2cnnn2)cc1
    -2 | -4
O=C1c2ccccc2CS(=O)(=O)N1Cc1nc2ccccc2s1
    9 | 6
Cc1ccc(SC2CCN(Cc3cc4n(n3)CCNC4)CC2)cc1
    16 | 12
CN(CC1CCCN(CCc2ccc(Cl)cc2)C1)C(=O)CN1CCCCC1=O (stereo not given)
    7 | 3
CCOC(=O)c1c(NC(=O)c2cccc3c2-c2ccccc2C3=O)c(-c2ccc(OC)c(OC)c2)cn1Cc1ccccc1
    4 | 2
COc1ccccc1Cn1c(C)c(C(=O)NCc2ccco2)sc1=O
    6 | 0
CN(C)c1ncccc1CNC(=O)Cc1ccc(O)c(Cl)c1
    0 | -5
CN(C)P1(N(C)C)=NC(c2ccccc2)=C(C#N)C(NN(c2ccccc2)c2ccccc2)=N1
    -3 | -4
COc1ccc(C(=O)CSc2ccc(NC(=O)C(C)C)nn2)cc1
    -1 | -3
C[C@@H]1CN(C2(C(=O)N(C)CCc3ccccn3)Cc3ccccc3C2)C[C@H](C)O1
    8 | 3
Cc1ccc(C)c(NC(=O)NC2(C(F)(F)F)Oc3ccccc3O2)c1
    7 | 5
COc1ccc(C2CC(c3ccccc3)=Nc3nnnn32)cc1 (stereo not given)
    2 | -2
OCC#Cc1csc(CN2CCn3cncc3C2)c1
    7 | 4
CSCCCNC(=O)c1ccc(-c2n[nH]c3c2CCCc2ccccc2-3)cc1
    3 | -3
O=C1N=C2OC(C(=O)N3CCCC3)=CN2CCN1Cc1ccccc1
    -6 | -7
Cc1cc(C(=O)N(C)Cc2ccoc2)c(NC(=O)C(C)(C)C)s1
    -5 | -9

Not all compounds are listed; the hit share may differ from the screen's.
